MLL_AF4-AF9_inh: inhibitors of human MLL-AF4/AF9 interaction; actives 0.47% (n = 350,000); AID 651704; AlphaScreen, biotin-AF4 peptide binding to FLAG-AF9; P42568; inhibition, % at 10 µM;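 active = every replicate reaching a set inhibition limit, whatever the replicate mean, cut at about 25% in these data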;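 also: 0% = plate neutral control median and 100% = total signal loss; the record names both 10 and 1 µM as test concentration; the first replicate is given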
Target sequence (P42568 whole entry, looked up): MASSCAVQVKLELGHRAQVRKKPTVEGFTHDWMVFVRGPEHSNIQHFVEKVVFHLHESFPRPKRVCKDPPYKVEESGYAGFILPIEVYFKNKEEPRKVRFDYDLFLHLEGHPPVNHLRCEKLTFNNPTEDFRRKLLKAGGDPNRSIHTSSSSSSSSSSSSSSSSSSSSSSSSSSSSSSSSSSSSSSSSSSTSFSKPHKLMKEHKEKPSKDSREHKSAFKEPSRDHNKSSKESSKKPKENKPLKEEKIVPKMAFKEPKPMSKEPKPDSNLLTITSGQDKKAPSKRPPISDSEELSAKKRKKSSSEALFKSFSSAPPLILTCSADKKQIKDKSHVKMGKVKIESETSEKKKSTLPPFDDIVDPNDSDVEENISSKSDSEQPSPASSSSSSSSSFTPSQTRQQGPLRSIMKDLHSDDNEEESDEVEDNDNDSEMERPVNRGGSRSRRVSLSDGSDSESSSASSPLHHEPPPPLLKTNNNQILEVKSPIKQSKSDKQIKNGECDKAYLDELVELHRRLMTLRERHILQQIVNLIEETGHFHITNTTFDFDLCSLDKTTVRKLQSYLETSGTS
FGF22_binding: binders of recombinant human FGF22 by thermal shift | Q9HCT0 | SYPRO orange fluorescence; percent of sucrose octasulfate shift, DMSO zero | calls only at 9.99 µM | actives 1.5% (n = 340,000) | AID 651658;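 active = melting point raised past a set limit in the mean and every replicate; three in four hits are not shown here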
Target sequence (Q9HCT0 whole entry, looked up): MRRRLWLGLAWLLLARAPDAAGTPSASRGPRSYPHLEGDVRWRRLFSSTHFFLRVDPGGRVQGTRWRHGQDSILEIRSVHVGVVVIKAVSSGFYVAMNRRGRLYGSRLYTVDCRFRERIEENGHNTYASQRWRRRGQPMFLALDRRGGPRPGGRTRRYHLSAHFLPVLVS
* = called active by the depositor; i = inactive; + = active, no number. The list is partial, so the mix of outcomes need not match the whole.

SMILES MLL_AF4-AF9_inh FGF22_binding
C[C@@H]1CN([C@H](C)CO)C(=O)c2cc(NC(=O)Cn3cnnn3)ccc2O[C@@H]1CN(C)Cc1ccc(Oc2ccccc2)cc1 5.3 i
CCCN1C[C@H](C)[C@H](OC)CN(C)C(=O)c2ccc(NC(=O)c3ccccc3F)cc2OC[C@H]1C -2.5 i
CCCNC(=O)N1[C@@H](C#N)[C@H](c2ccc(-c3ccccc3F)cc2)[C@@H]1CO -1.5 i
C[C@@H]1CN([C@@H](C)CO)C(=O)c2cc(NS(=O)(=O)c3ccccc3)ccc2O[C@H]1CN(C)CC1CCCCC1 -1.5 i
C[C@H](CO)N1C[C@H](C)[C@H](CN(C)C(=O)NC2CCCCC2)OCCCC[C@H](C)Oc2ccc(NC(=O)Nc3ccc(C(F)(F)F)cc3)cc2C1=O -0.5 i
COCCNC(=O)C[C@@H]1C[C@@H]2c3cc(NC(=O)CC4CC4)ccc3O[C@@H]2[C@@H](CO)O1 -0.2 i
COc1ccc(CN(C)C[C@H]2Oc3c(NC(=O)C4CCCCC4)cccc3C(=O)N([C@@H](C)CO)C[C@@H]2C)cc1 -0.2 i
Cc1noc(C)c1S(=O)(=O)N(C)C[C@@H]1OCCCC[C@@H](C)Oc2ccc(NC(=O)Nc3cccc4ccccc34)cc2C(=O)N([C@@H](C)CO)C[C@H]1C 1.5 i
O=C(C[C@@H]1C[C@@H]2c3cc(NC(=O)NC4CCCCC4)ccc3O[C@@H]2[C@@H](CO)O1)NCc1ccccn1 0.0 i
CO[C@H]1CN(C)C(=O)c2ccc(NC(=O)NC(C)C)cc2OC[C@@H](C)N(Cc2ccccc2)C[C@H]1C -1.9 i
Cc1noc(C)c1S(=O)(=O)N(C)C[C@H]1OCCCC[C@@H](C)Oc2ccc(NC(=O)Nc3ccccc3)cc2C(=O)N([C@@H](C)CO)C[C@@H]1C 7.4 i
Cc1cccc(-c2ccc([C@@H]3[C@H](CO)N4CCCCN(S(=O)(=O)c5ccccc5C)C[C@@H]34)cc2)c1 8.7 i
O=C(N[C@H]1C=C[C@@H](CC(=O)N2CCc3ccccc3C2)O[C@@H]1CO)C1CCC1 -1.9 i
CC(C)c1cn(CC[C@H]2CC[C@@H](NS(=O)(=O)c3ccc(Cl)cc3)[C@@H](CO)O2)nn1 -0.7 i
C[C@H](CO)N1C[C@H](C)[C@H](CN(C)Cc2ccc(C(F)(F)F)cc2)OCc2cnnn2CCCC1=O 1.0 i
C[C@H](O)C#Cc1ccc2c(c1)O[C@H](CN(C)C(=O)CC1CC1)[C@H](C)CN([C@H](C)CO)S2(=O)=O -0.7 i
Cc1noc(C)c1NC(=O)N(C)C[C@H]1Oc2c(NC(=O)Nc3ccc(C(F)(F)F)cc3)cccc2C(=O)N([C@@H](C)CO)C[C@@H]1C -4.7 i
CCC(=O)N1C[C@@H](C)[C@@H](OC)CN(C)C(=O)c2ccc(NC(=O)C3CCCCC3)cc2OC[C@@H]1C 1.2 i
C[C@@H]1CN([C@@H](C)CO)C(=O)c2c(c3ccccc3n2C)-c2ccccc2CO[C@H]1CN(C)S(=O)(=O)c1ccc(Cl)cc1 -0.2 i
CO[C@H](CN(C)C(=O)c1ccccc1F)[C@@H](C)CN([C@@H](C)CO)S(=O)(=O)c1ccc(Cl)cc1 -0.4 i
O=C(C[C@H]1C[C@H]2c3cc(NC(=O)C4CCC4)ccc3O[C@H]2[C@@H](CO)O1)NCCc1ccccc1 0.5 i
COc1cccc(S(=O)(=O)N(C)C[C@H]2Oc3cc(C#CCN(C)C)ccc3S(=O)(=O)N([C@H](C)CO)C[C@H]2C)c1 2.6 i
CC(=O)N(C)C[C@H]1Oc2cc(C#Cc3ccc(F)cc3)ccc2S(=O)(=O)N([C@H](C)CO)C[C@H]1C -0.4 i
COc1ccc(CN(C)C[C@@H]2OCCCC[C@@H](C)Oc3ccc(NC(=O)Nc4c(C)noc4C)cc3C(=O)N([C@H](C)CO)C[C@H]2C)cc1 -2.2 i
O=C(C[C@@H]1CC[C@H](NC(=O)Nc2ccc(C(F)(F)F)cc2)[C@H](CO)O1)NCCN1CCCC1 5.8 i

In the list so far, four have a CF3 group:
SMILES MLL_AF4-AF9_inh FGF22_binding
C[C@H](CO)N1C[C@H](C)[C@H](CN(C)C(=O)NC2CCCCC2)OCCCC[C@H](C)Oc2ccc(NC(=O)Nc3ccc(C(F)(F)F)cc3)cc2C1=O -0.5 i
C[C@H](CO)N1C[C@H](C)[C@H](CN(C)Cc2ccc(C(F)(F)F)cc2)OCc2cnnn2CCCC1=O 1.0 i
Cc1noc(C)c1NC(=O)N(C)C[C@H]1Oc2c(NC(=O)Nc3ccc(C(F)(F)F)cc3)cccc2C(=O)N([C@@H](C)CO)C[C@@H]1C -4.7 i
O=C(C[C@@H]1CC[C@H](NC(=O)Nc2ccc(C(F)(F)F)cc2)[C@H](CO)O1)NCCN1CCCC1 5.8 i

Additional compounds follow:
SMILES MLL_AF4-AF9_inh FGF22_binding
C[C@H](O)C#Cc1ccc([C@@H]2[C@H](CO)N3CCCCN(C(=O)Nc4ccccc4)C[C@@H]23)cc1 0.8 i
O=C(c1ccncc1)N1CCCCN2[C@H](C1)[C@H](c1ccc(C#Cc3ccccn3)cc1)[C@@H]2CO 5.2 i
COCC(=O)N(C)C[C@H]1Oc2ncc(/C=C/c3ccccc3)cc2C(=O)N([C@@H](C)CO)C[C@H]1C -0.7 i
O=C(C[C@H]1CC[C@H](NC(=O)c2ccc3c(c2)OCO3)[C@@H](CO)O1)NCc1ccc(Cl)cc1 -1.0 i
CO[C@@H]1CN(C)C(=O)c2cc(NC(=O)Nc3ccccc3F)ccc2OC[C@@H](C)N(CC2CC2)C[C@@H]1C 4.3 i
COc1ccc(S(=O)(=O)N(C)C[C@@H]2OCCCC[C@H](C)Oc3ccc(NC(=O)Nc4ccc(C(F)(F)F)cc4)cc3C(=O)N([C@@H](C)CO)C[C@@H]2C)cc1 -10 i
O=C(C[C@H]1CC[C@H](NC(=O)Nc2cc(F)ccc2F)[C@H](CO)O1)NCc1ccncn1 -2.8 i
O=C(C[C@@H]1CC[C@H]2[C@@H](COC[C@@H](O)CN2C(=O)c2ccccc2F)O1)NCc1ccc(Cl)cc1 -1.1 i
O=C(C[C@@H]1C=C[C@H](NS(=O)(=O)c2ccccc2)[C@H](CO)O1)N1CCc2ccccc2C1 -4.7 i
C[C@H](CO)N1C[C@H](C)[C@H](CN(C)Cc2ccc(C(=O)Nc3ccccc3N)cc2)Oc2ccc(NC(=O)CCC(F)(F)F)cc2C1=O 0.4 i
C[C@H]1CN([C@@H](C)CO)S(=O)(=O)c2ccc(C#Cc3ccccc3)cc2O[C@@H]1CN(C)C(=O)CN(C)C 9.8 i
C/C=C/c1ccc2c(c1)O[C@H](CN(C)C(C)=O)[C@H](C)CN([C@H](C)CO)S2(=O)=O -1.4 i
C[C@@H]1CN([C@H](C)CO)C(=O)c2cc(C3=CCCCC3)cnc2O[C@@H]1CN(C)C(=O)C1CCOCC1 -2.3 i
C[C@H]1CN([C@@H](C)CO)C(=O)c2cc(NC(=O)C3CCCCC3)ccc2O[C@@H]1CN(C)C(=O)Nc1ccc(F)cc1 -3.9 i
C[C@@H]1CN([C@@H](C)CO)C(=O)c2cc(-c3ccncc3)cnc2O[C@@H]1CN(C)C(=O)Cc1ccccn1 -1.5 i
CCCNC(=O)N1CC(=O)N2[C@H](C1)[C@H](c1ccc(C#Cc3cccc(OC)c3)cc1)[C@@H]2CO 0.5 i
COc1ccc2c3c([nH]c2c1)[C@@H](CO)N(C(C)=O)CC31CCN(S(=O)(=O)c2ccccc2)CC1 0.7 i
CC(C)CC#Cc1ccc2c(c1)O[C@H](CN(C)C(=O)C1CCOCC1)[C@@H](C)CN([C@H](C)CO)S2(=O)=O 2.0 i
O=C(C[C@@H]1C[C@@H]2c3cc(NC(=O)c4ccc5c(c4)OCO5)ccc3O[C@@H]2[C@H](CO)O1)NCc1cccc(F)c1 -7.0 i
C[C@H](CO)N1C[C@H](C)[C@H](CN(C)S(=O)(=O)c2ccc(F)cc2)Oc2ccc(NC(=O)Cc3ccccc3)cc2CC1=O -1.3 i
Cc1ccc(S(=O)(=O)Nc2cccc3c2O[C@H](CN(C)C)[C@@H](C)CN([C@@H](C)CO)C3=O)cc1 -2.8 i
C[C@@H]1CN([C@@H](C)CO)C(=O)c2cc(NS(=O)(=O)c3ccc(F)cc3)ccc2O[C@@H]1CN(C)Cc1ccc(C(=O)Nc2ccccc2N)cc1 -12 i
C[C@H](CO)N1C[C@H](C)[C@H](CN(C)C(=O)Cc2ccccc2)Oc2cc(-c3cncnc3)ccc2S1(=O)=O 5.0 i
CCCN(C)C[C@H]1Oc2cc(Br)ccc2S(=O)(=O)N([C@@H](C)CO)C[C@H]1C -1.1 i
C[C@@H]1CCCCO[C@H](CN(C)S(=O)(=O)c2ccc(F)cc2)[C@H](C)CN([C@@H](C)CO)C(=O)c2cc(NC(=O)c3ccncc3)ccc2O1 1.9 i

Reprinted from the part before: 3 entries, followed by the next part.
SMILES MLL_AF4-AF9_inh FGF22_binding
C[C@H](CO)N1C[C@H](C)[C@H](CN(C)C(=O)Cc2ccccc2)Oc2cc(-c3cncnc3)ccc2S1(=O)=O 5.0 i
CCCN(C)C[C@H]1Oc2cc(Br)ccc2S(=O)(=O)N([C@@H](C)CO)C[C@H]1C -1.1 i
C[C@@H]1CCCCO[C@H](CN(C)S(=O)(=O)c2ccc(F)cc2)[C@H](C)CN([C@@H](C)CO)C(=O)c2cc(NC(=O)c3ccncc3)ccc2O1 1.9 i
CCCC(=O)Nc1ccc2c(c1)OC[C@H](C)N(Cc1cncnc1)C[C@H](C)[C@H](OC)CN(C)C2=O 3.0 i
COC(=O)[C@]12C[C@H](CC(=O)NCCc3ccccc3OC)C(=O)N(Cc3ccccc3)C1=C[C@H](C1CCCC1)O[C@@H]2C 0.1 i
CCNC(=O)C[C@@H]1CC[C@H]2[C@H](COc3ccc(NC(=O)Nc4cccc(F)c4)cc3C(=O)N2C)O1 3.0 i
COc1cccc(C#Cc2ccc([C@@H]3[C@@H](C#N)N(C(=O)C4CCC4)[C@@H]3CO)cc2)c1 -2.0 i
C[C@@H]1CN([C@H](C)CO)C(=O)c2cccc(NC(=O)Nc3ccc(F)cc3)c2O[C@@H]1CN(C)CC1CCCCC1 4.9 i
C[C@H](CO)N1C[C@H](C)[C@H](CN(C)S(=O)(=O)c2ccc(F)cc2)Oc2ccc(NC(=O)CCN3CCOCC3)cc2CC1=O 0.7 i
Cc1ccc(S(=O)(=O)N[C@H]2CC[C@@H](CCn3cc(C4(O)CCCC4)nn3)O[C@H]2CO)cc1 0.3 i
COc1ccc(NC(=O)Nc2ccc3c(c2)C(=O)N([C@@H](C)CO)C[C@@H](C)[C@H](CN(C)C(=O)NC(C)C)OCCCC[C@H](C)O3)cc1 1.0 i
COc1ccc(S(=O)(=O)N2CCCCN3[C@H](CO)[C@@H](c4ccc(C#CC(C)C)cc4)[C@@H]3C2)cc1 -3.7 i
Cc1noc(C)c1NC(=O)N(C)C[C@@H]1Oc2ccc(NC(=O)C3CC3)cc2CC(=O)N([C@@H](C)CO)C[C@@H]1C -2.9 i
COC(=O)C1(N2CC3=C[C@@H]([C@@H](O)Cc4ccccc4)n4c(=O)n(C)c(=O)n4[C@@H]3[C@@H](C3CC3)O2)CCCC1 1.7 i
C[C@H](CO)N1C[C@H](C)[C@H](CN(C)C(=O)Nc2ccccc2F)Oc2ncc(-c3ccc(F)cc3)cc2C1=O 0.2 i
Cc1ccc(S(=O)(=O)N[C@@H]2CC[C@@H](CCNS(=O)(=O)Cc3ccccc3)O[C@H]2CO)cc1 -1.5 i
COc1cccc(S(=O)(=O)N(C)C[C@H]2Oc3ncc(C#CC(C)C)cc3C(=O)N([C@@H](C)CO)C[C@H]2C)c1 -1.2 i
C[C@H](CO)N1C[C@H](C)[C@H](CN(C)Cc2ccc(-c3ccccc3)cc2)Oc2c(NC(=O)c3ccc(-c4nccs4)cc3)cccc2C1=O 2.6 i
Cc1ccc(S(=O)(=O)N(C)C[C@H]2Oc3c(NC(=O)c4nc5ccccc5s4)cccc3C(=O)N([C@H](C)CO)C[C@H]2C)cc1 1.3 i
C[C@H](CO)N1C[C@H](C)[C@@H](CN(C)C(=O)Nc2ccc3c(c2)OCO3)OCCCC[C@H](C)Oc2ccc(NC(=O)Nc3ccc(C(F)(F)F)cc3)cc2C1=O -1.8 i
O=C(C[C@H]1CC[C@@H]2[C@H](COC[C@H](O)CN2Cc2cc(F)ccc2F)O1)N1CCc2ccccc2C1 3.0 i
C[C@H]1CN([C@@H](C)CO)S(=O)(=O)c2ccc(-c3ccncc3)cc2O[C@H]1CN(C)C(=O)Nc1ccc(F)cc1 -2.9 i
CNC[C@H]1OCCCC[C@H](C)Oc2ccc(NC(=O)NC(C)C)cc2C(=O)N([C@H](C)CO)C[C@@H]1C -3.1 i
Cc1ccc(S(=O)(=O)Nc2ccc3c(c2)CC(=O)N([C@@H](C)CO)C[C@H](C)[C@@H](CN(C)Cc2ccccc2)O3)cc1 3.7 i
O=C(C[C@H]1CC[C@@H]2[C@H](COC[C@@H](O)CN2Cc2ccc3c(c2)OCO3)O1)N1CCOCC1 -0.1 i
CCN1C[C@@H](C)[C@H](OC)CN(C)C(=O)c2cc(NC(=O)c3ccno3)ccc2OC[C@H]1C 1.1 i
CCCN1[C@@H]2c3ccc(C4=CCCC4)c(=O)n3C[C@H]1[C@H](CO)[C@H]2C(=O)NCc1ccccn1 -27 i
CN(C)CC(=O)Nc1ccc2c(c1)[C@H]1C[C@H](CC(=O)NC3CCCC3)O[C@@H](CO)[C@H]1O2 -0.3 i
CC(C)N(c1cc(=O)nc2ccccn12)C(C)C -3.3 i
CCCN1C[C@H](C)[C@H](OC)CN(C)C(=O)c2ccc(NC(=O)c3ccccc3F)cc2OC[C@@H]1C -2.2 i
C[C@@H]1CCCCO[C@@H](CN(C)S(=O)(=O)c2ccccc2)[C@H](C)CN([C@@H](C)CO)C(=O)c2cc(NC(=O)Nc3ccccc3)ccc2O1 -1.0 +

Screening data from PubChem BioAssay.
